Bioassay records: PubChem BioAssay, National Center for Advancing Translational Sciences (NCATS)
VACV Venus inh = vaccinia inhibition (Venus reporter) | 0.46% of 330,000 active | Vaccinia virus Venus reporter expression, fluorescence | Potency, µM (series often up to 36.5 µM), without a hit: at the highest dose activity change, negative = inhibition, actives largely listed as inhibitors | AID 720580; active means well fitted inhibition curve with a large enough effect; inconclusive means small, poorly fitted or top-dose-only effect; inactive means no such curve, though single readings can be large or run the other way; tested in A549 cells; also: nearly all actives have a fitted effect of over 30% in size; inactives centre near -10
Vaccinia mCherry = vaccinia inhibition (mCherry reporter); Potency, µM (titrated, usually from 36.5 µM), for inactives: at the top dose activity change, negative = inhibition, usual class: inhibitors; AID 720579; 0.63% of 310,000 active; Vaccinia virus mCherry reporter infection, fluorescence; about a quarter of the inactives have no number; active = well fitted inhibition curve with a large enough effect; inconclusive = small, poorly fitted or top-dose-only effect; inactive = no such curve, though single readings can be large or run the other way; tested in A549 cells; also: nearly all actives have a fitted effect of over 35% in size; inactives centre near -10
* = called active by the depositor; i = inactive; u = inconclusive; x = not tested or not shown; & = joins results of further samples; [ ] = another dose, or the depositor's remark. % is scaled to controls: 0 for no effect and ±100 for the full control effect; potency is read from the fitted curve at half-maximal effect.

SMILES | VACV Venus inh | Vaccinia mCherry
CSc1ccccc1C(=O)N1CCc2ccccc2C1 | -6% | i
C/C(=N\S(=O)(=O)c1ccc(C)cc1)Nc1cc(C(C)C)c(O)cc1C | -19% | u
COc1ccccc1CNC(=O)c1ccc(N2CCCC2)c(NC(=O)NCc2ccccc2)c1 | -25% | -11%
O=C(Oc1ccccc1)N1CCCCC1 | -17% | -4%
COc1ccc(CN(C)C(c2ccccc2)c2nnnn2-c2ccccc2C)c(OC)c1C (configuration not stated) | -12% | x
COc1ccccc1NC(=O)c1sc2ncn(CC(=O)Nc3ccccc3)c(=O)c2c1C | -4% | -5%
O=C(Cc1ccccc1)Nc1ccc(NC(=O)Cc2ccccc2)c(Cl)c1 | -3% | -12%
Cc1ccc(C2=NOC(C)(c3sc(-c4ccc(Cl)cc4)nc3C)C2)cc1 (configuration not stated) | 2% | -6%
COc1cccc2cc(C(=O)N3CCN(C(=O)c4ccco4)CC3)c(=O)oc12 | -4% | -14%
Cc1ccc(SCc2noc(C(=O)NC(C)C)c2C(=O)O)cc1C | -6% | i
Cc1ccc(Cn2c(C(=O)O)c(CNCc3cccs3)c3ccc(C)cc32)cc1 | -18% | -12%
CCOc1c2ccc(C(=O)NCc3ccc(OC(F)(F)F)cc3)cc2nn1C | -4% | -11%
C#CCN(C[C@H]1[C@H](OC(=O)NCCCCCC)[C@H](OC(=O)NCCCCCC)C[C@@H](C(=O)OC)[C@H]1C(=O)OC)S(=O)(=O)c1ccc(C)cc1 | u | -11%
Cc1ccc(NC(=O)c2sc3nc[nH]c(=O)c3c2C)c(C)c1 | -17% | -6%
O=C(NCC(F)(F)F)c1ccc(S(=O)(=O)Nc2ccccc2N2CCCC2)cc1 | 1% | u
O=C(CSc1nnc(-c2cccnc2)n1-c1ccccc1)NCc1ccc2c(c1)OCO2 | -6% | -13%
O=C(NC(=S)Nc1ccc(Br)cc1)C1CCC1 | -22% | 0%
CCCCCc1nnc(NC(=O)Cn2cnc3ccccc3c2=O)s1 | 3% | -1%
O=C(c1ccc(Cl)cc1)N1CCCC(C(=O)N2CCc3ccccc3C2)C1 (configuration not stated) | -7% | i
COc1ccccc1NC(=O)COC(=O)C1CC2CCCC(C1)C2=O (configuration not stated) | -12% | -14%
CCOC(=O)c1[nH]cnc1C(=O)NC(C)C | -28% | x
COc1ccc(C)cc1NC(=O)c1cc(S(=O)(=O)N2CCC3(CC2)OCCO3)ccc1F | -12% | i
Clc1ccc(-c2nnc(-c3ccccc3)c(N3CCSCC3)n2)cc1 | -14% | -18%
CCn1cc(C(=O)NCCCN2CCC(C)CC2)c(=O)c2cc(S(=O)(=O)N(C)C3CCCCC3)ccc21 | -10% | -18%
Cc1ccc(CNS(=O)(=O)c2cc3c(cc2Cl)NC(=O)CO3)o1 | 0% | -17%
Cc1ccc(NC(=O)c2ccccc2O)cc1 | u | -9%[1.46 µM]
COc1ccccc1C(=O)Cc1ccccc1 | 6% | i
COc1ccc(C(c2nnnn2C2CCCC2)N2CCc3ccccc3C2)cc1OC (configuration not stated) | -18% | x
Fc1cccc(F)c1CN1CCN(c2ccc(Cl)cc2)CC1 | -13% | -14%
Oc1cccc(C=Nc2cccc3ccccc23)c1O | 13% | u
CC(C)Oc1ccc(C2CC(=O)N(c3ccccc3)C2=O)cc1 (configuration not stated) | -10% | x
CCCNc1nc2c(c(=O)[nH]c(=O)n2C)n1CCC(C)C | -11% | i
COc1ccc2nc(-c3ccccn3)ccc2c1 | -13% | i
Fc1ccccc1CCNCc1ccccc1 | -9% | i
COc1cccc(-c2cn3c(n2)sc2cc(C(=O)NCCC4=CCCCC4)ccc23)c1 | -9% | -14%
O=C(NP(=O)(N1CCCC1)N1CCCC1)C1=C(N2CCOCC2)/C(=C/c2cccc([N+](=O)[O-])c2)CC1 | -2% | -12%
CC(C)Cn1c(N)c(C(=O)CSc2ccccc2)c(=O)n(C)c1=O | -22% | u
COc1ccc(CN(C)C(=O)CNC(=O)c2sc3ccccc3c2Cl)c(OC)c1 | -13% | -18%
COc1ccc(OC)c(/C=C/C(=O)Oc2ccc(C(C)=O)cc2)c1 | 2% | i
COc1cc2c(cc1OC)C(C(=O)NC1CC1)C1c3ccccc3CCN1C2=O (configuration not stated) | 0% | -17%
O=C(CNC(=O)c1cccs1)OCc1ccc(Cl)cc1 | 1% | -17%
O=C(Nc1ccccc1Cl)N1CCC2(CC1)Oc1ccccc1C(=O)N2Cc1ccc(F)cc1 | -24% | -18%
Cc1ccc(C)c(CSC2=NC(C)(C)Nc3ccccc32)c1 | -2% | -6%
COCCNC(=O)c1cccc(OC2CCN(Cc3ccc(Cl)c(F)c3)CC2)c1 | -17% | -15%
O=C(CCN1C(=O)/C(=C/c2ccccc2F)SC1=S)N[C@@H](CO)Cc1ccccc1 | -16% | -9%
COc1ccc(NC(=S)NCCc2c(C)[nH]c3ccc(OC)cc23)cc1 | -13% | -22%
C/C(=N/NC(=O)CNC(=O)c1ccncc1)c1ccco1 | -9%[7.34 µM] | i[7.34 µM]
CCC1=C(OC(=O)N(CC)CC)N2C(=O)OC(=NCc3ccccc3)[C@]2(C)[C@H]2C1=CC[C@H]1C(=O)N(CC(=O)OC)C(=O)[C@H]12 | -12% | -27%
CN(C(=O)c1c[nH]c2ccc(S(=O)(=O)Nc3cccc(C(F)(F)F)c3)cc2c1=O)C1CCCCC1 | -4% | -1%
CCOC(=O)c1sc2ccccc2c1NC(=O)c1coc2ccccc2c1=O | -12% | -6%
CCC(C)n1c(=N)c(C(=O)NCc2ccccc2)cc2c(=O)n3cc(C)ccc3nc21 (configuration not stated) | -14% | -15%
O=C(COc1ccc(Br)cc1)N1CCC(c2ccccc2)C1 (configuration not stated) | -14% | x
COc1ccc(NS(=O)(=O)c2ccc(N3CCOCC3)c(NC(=O)c3ccc(OC)cc3)c2)cc1 | -26% | u
CO[C@H]1/C=C/O[C@@]2(C)Oc3c(C)c(O)c4c(O)c(c5c(c4c3C2=O)NC2(CCN(CC(C)C)CC2)N=5)=NC(=O)/C(C)=C\C=C\[C@H](C)[C@H](O)[C@@H](C)[C@@H](O)[C@@H](C)[C@H](OC(C)=O)[C@@H]1C | -28% | -15%
CCN(CC)CCn1c(NCc2cccc(OC)c2)nc2ccccc21 | -13% | -15%
O=C(NNC(=O)C1[C@H]2CCCC[C@@H]12)c1ccc(=O)oc1 (some centres not stated) | -14% | i
NC(=O)NC1(C(=O)O)CCCC1 | 7% | -9%
Cc1nc2ccccc2c(=O)n1-c1ccc(F)cc1 | -14% | -9%
C[C@H](CO)N1C[C@H](C)[C@@H](CN(C)C(=O)Nc2ccc(F)cc2)OCc2cnnn2CCCC1=O | -7% | -8%
O=C(COc1ccccc1)Nc1nc2c(s1)CCCC2 | 0% | i

Profiles, quoted from the list. Screens in order: VACV Venus inh, Vaccinia mCherry
Results for COc1ccc(NS(=O)(=O)c2ccc(N3CCOCC3)c(NC(=O)c3ccc(OC)cc3)c2)cc1 = -26%, u
Results for O=C(COc1ccccc1)Nc1nc2c(s1)CCCC2 = 0%, i
Results for O=C(NNC(=O)C1[C@H]2CCCC[C@@H]12)c1ccc(=O)oc1 (some centres not stated) = -14%, i
Results for Cc1nc2ccccc2c(=O)n1-c1ccc(F)cc1 = -14%, -9%

More structures follow.
SMILES | VACV Venus inh | Vaccinia mCherry
CCOc1ccccc1NC(=O)c1nc(S(=O)(=O)Cc2cccc(C)c2)ncc1Cl | -25% | -24%
CCN1CCN(C(=S)Nc2ccc(Cl)cc2Cl)CC1 | -15% | i
COc1ccc(CN2C(=O)C(C)Nc3ncnc(N4CCc5ccccc5C4)c32)cc1 (configuration not stated) | -21% | -24%
C=CCC[C@@H](CCCCC)OC(=O)/C=C/[C@H](O)[C@@H](O)C[C@H](O)CC=C | -11% | 6%
Cc1ccc(C)c(-c2cc(C(=O)NNC(=S)NCC(C)C)c3ccccc3n2)c1 | -20% | -28%
CC(C)[C@H](N)c1cn([C@@H](CC(N)=O)C(=O)N2CCNCC2)nn1 | -6% | i
Cc1c(NC(=O)C(C#N)=C2CCCCC2)c(=O)n(-c2ccccc2)n1C | -9% | x
O=C(Nc1cccc(S(=O)(=O)N2CCOCC2)c1)C1COc2ccccc2O1 (configuration not stated) | -7% | -13%
CCOc1ccc(C(=O)NCC(=O)NNC(=O)c2ccco2)cc1OCC | -10% | i
COc1cccc(-n2c(SCC(=O)N3CCCCC3)nc3c([nH]c4ccccc43)c2=O)c1 | 2%&-5% | 1%&-2%
COc1ccccc1CNC(=O)CCS(=O)(=O)c1ccc(Cl)cc1 | -16% | i
COc1ccc(OC)c(S(=O)(=O)NC2CCN(Cc3ccccc3)CC2)c1 | -5% | -21%
O=C(CSc1nnc(-c2cccs2)n1-c1ccccc1)c1ccc2c(c1)OCCO2 | -2% | x
O=C(NCCN1CCOCC1)C1CCN(S(=O)(=O)c2ccccc2)CC1 | -8% | i
CCc1cccc(C)c1Nc1c(-c2cccc(O)c2)nc2cnccn12 | -18% | -23%
c1ccc(OCc2nc(-c3cccs3)no2)cc1 | -3% | -10%
Cc1nn2c(=O)cc(COC(=O)c3ccccc3NC(=O)C(C)Oc3ccccc3)nc2s1 (configuration not stated) | -21% | i
CCC(C)c1c(N)n(S(=O)(=O)c2ccc(C)cc2)oc1=O (configuration not stated) | -15% | -14%
COc1cc(C(=O)NCc2ccccc2)cc(Br)c1OC | -15% | i
CC1CCC2(CC1)OCC1(CCC3(COC4(CCC(C)CC4)OC3)C1=O)CO2 (configuration not stated) | -20% | -2%
COc1cccc(C(=O)OCC(=O)c2ccc(S(=O)(=O)N3CCCCC3)cc2)c1OC | -15% | -18%
O=C(Nc1c(C(=O)N2CCCCC2)cnn1-c1ccccc1)c1ccco1 | -8% | -6%
CC(Sc1nnnn1-c1ccccc1)C(=O)NC1CCCC1 (configuration not stated) | -8% | -13%
O=C(NCCc1ccccc1)C(=O)c1c[nH]c2ccccc12 | -10% | i

Exported with two lines to a compound: entries from further up
Second line of a record: VACV Venus inh, Vaccinia mCherry
> c1ccc(OCc2nc(-c3cccs3)no2)cc1
  -3%, -10%
> Cc1nn2c(=O)cc(COC(=O)c3ccccc3NC(=O)C(C)Oc3ccccc3)nc2s1 (configuration not stated)
  -21%, i
> CCC(C)c1c(N)n(S(=O)(=O)c2ccc(C)cc2)oc1=O (configuration not stated)
  -15%, -14%
> COc1cc(C(=O)NCc2ccccc2)cc(Br)c1OC
  -15%, i
> CC1CCC2(CC1)OCC1(CCC3(COC4(CCC(C)CC4)OC3)C1=O)CO2 (configuration not stated)
  -20%, -2%
> COc1cccc(C(=O)OCC(=O)c2ccc(S(=O)(=O)N3CCCCC3)cc2)c1OC
  -15%, -18%

(more compounds)
SMILES | VACV Venus inh | Vaccinia mCherry
CCN(C(=O)c1cn(C)c(=O)c2ccccc12)c1ccccc1F | 7% | -3%
O=C(C[C@H]1C(=O)N(c2ccccc2)C[C@@H]1Cc1ccccc1)Nc1ccc(Br)cc1 | -26% | i
CCc1ccc2c(c1)NC(=O)C2(C)Cc1ccccc1Cl (configuration not stated) | -14% | i
Cc1cccc(Cn2c(NCC(C)O)nc3c2c(=O)n(C)c(=O)n3C)c1 (configuration not stated) | -41% | x
Cc1cc(-c2ccccc2)n2ncc(-c3ccccc3)c2n1 | -26% | i
COC(=O)CCC(=O)NNC(=O)CCC(=O)Nc1cccc(Cl)c1C | 4% | i
Oc1ccc(Cl)cc1Nc1nc2ccccc2n2cnnc12 | 14% | -1%
C/C(=N\Nc1cc(Cl)nc(C)n1)c1ccc(Cl)c(Cl)c1 | 1% | -8%
Cc1nnc(NC(=O)c2ccc(F)c(S(=O)(=O)N3CCCCC3)c2)s1 | -5% | -7%
CC(=O)c1sc2c(c1N)c(=O)[nH]c(=O)n2-c1ccccc1 | -2% | -8%
Cc1cc(Cl)ccc1NC(=S)NCc1ccc(Cl)cc1 | u | u
O=C(Cc1ccc(NS(=O)(=O)c2ccc(Cl)c(Cl)c2)cc1)NCCN1CCOCC1 | -21% | i
CCC1Oc2ccc(C)cc2N(CC(=O)NCCCN2CCN(Cc3ccccc3)CC2)C1=O (configuration not stated) | -12% | i
CC12CCC(C(=O)N(NC(=O)c3ccccc3Cl)C1=O)C2(C)C (configuration not stated) | -2% | i
CC1CCN(C(=O)Cn2cc(SCC(=O)NCc3ccccc3)c3ccccc32)CC1 | -10% | -1%
C#CCn1c2ccccc2c(=O)n1C(C)CBr (configuration not stated) | 7% | -1%
COc1ccccc1C1SCCN1S(=O)(=O)c1cccc(C(F)(F)F)c1 (configuration not stated) | -19% | -17%
Cn1ccc(C(=O)NCC2CCC3(CCN(Cc4cc(F)cc(F)c4)CC3)O2)n1 (configuration not stated) | 0% | i
COc1ccc(CNC(=O)Cn2nc(N3CCN(c4ccccc4)CC3)ccc2=O)c(OC)c1 | 0% | -8%
COc1ccc(Oc2nc3c(c(=O)n(C)c(=O)n3C)n2Cc2ccccc2Cl)cc1 | -1% | -13%
Cc1ccccc1CNC(=O)c1cccc(NC(=O)N2CCSc3ncccc32)c1 | -8% | -10%
COc1cc(Nc2ncnc(N)n2)cc(OC)c1OC | 15% | 1%
O=S(=O)(NCc1cccnc1)c1ccc(Cl)nc1 | 5% | x
O=C(NCCc1csc(-c2ccccc2)n1)c1cccs1 | -13% | -8%
OCC[C@@H]1C[C@@H](O)[C@H](O)[C@@]2(CCc3ccccc3CO2)O1 | -10% | i
O=C(CC1C(=O)NCCN1CC(c1ccccc1)c1ccccc1)NCCc1cn[nH]c1 (configuration not stated) | 0% | -28%

Copied from the list.
Entry of COc1ccccc1C1SCCN1S(=O)(=O)c1cccc(C(F)(F)F)c1 (configuration not stated) under Vaccinia mCherry: -17%
Entry of CCC1Oc2ccc(C)cc2N(CC(=O)NCCCN2CCN(Cc3ccccc3)CC2)C1=O (configuration not stated) under VACV Venus inh: -12%
